BJeLR viability: MLPCN primary cell-based screen for lethality selective to Ras in HRASV12 cells; BJeLR (HRASV12) viability, CellTiter-Glo ATP luminescence, 48 h; reference of the scale not given here; inhibition, % (concentration not given with the values); actives 0.17% (n = 300,000); AID 1554, 2009;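 active = replicate mean above 50%; inconclusive = above 50% but judged a plate artefact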;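 also: 50 nL library stock added to about 25 µL; numbers are from one replicate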
PrP 5UTR inh: inhibition of PrP 5' UTR reporter expression; cell-based PrP 5' UTR mRNA reporter, plate reader; inhibition, % (concentration not given with the values); AID 488862, 2010; actives 0.35% (n = 340,000);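 active = every replicate at 50% or more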;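 also: 0 = median of the neutral control wells; tested in H4 reporter cells; numbers are from one replicate; inactives centre near -14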
Sa ugtP lethal: growth inhibition of ugtP-null S. aureus, primary screen, RN4220 ugtP deletion, OD600; growth inhibition, % (concentration not given with the values); actives 0.54% (n = 330,000); 16 h; some inactives read as strong as hits;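 active = z-score under -3 and OD600 up to 0.15 on both plates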;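 also: plate controls were untreated wells for no effect and antibiotic for full effect; wells of about 80 µL received 100 nL stock; the first replicate is given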
Mtb hypoxia inh: PubChem AID 1159583 | fluorescence inhibition, % (test concentration not listed) | actives 0.1% (n = 300,000) | M. tuberculosis hypoxia-regulated fluorescent reporter, fluorescence;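 active = 35 to 45% if threefold the growth effect, above 45% if 1.5-fold the growth effect; inactive = the rest, general growth blockers included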;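 also: wells of about 50 µL received 100 nL stock; 0% = vehicle wells and 100% = reference inhibitor wells; whole bacteria with a GFP reporter of the hypoxia response; strong numbers were not always called active; many hits fall short of the cut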
Bead autofluor: counter-screen for toxin protease inhibitors: compound fluorescence; fluorescence intensity (test concentration not listed); actives 3.1% (n = 360,000); compound autofluorescence counterscreen, microsphere flow cytometry; active compounds read high;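 active = at least 3 SD above the mean of all compounds, about 16000 in these data; inconclusive = too few beads counted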;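 also: 100 nL of 1 mM stock went into each well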
Sa RN4220 lethal: growth inhibition of S. aureus RN4220, primary screen, OD600; inhibition, % (test concentration not listed); actives 0.33% (n = 330,000); 16 h;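 active = z-score of -3 or lower and OD600 up to 0.18 on both plates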;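 also: plate controls were untreated cells for no effect and reference antibiotic for full effect; stock transfer was 100 nL into about 80 µL; one replicate is shown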
Mtb hypoxia inh growth: also measured in Mtb hypoxia inh; calls as there; growth inhibition, %; measured here: M. tuberculosis growth (absorbance);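 0% = vehicle and 100% = reference antibiotic; read after six days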
Active calls of the source: *.

For CCc1ccccc1N(CC(=O)NC(C)C)C(=O)CCC(=O)Nc1nccs1 the results were BJeLR viability -13.1, PrP 5UTR inh -14.1, Sa ugtP lethal 13.8, Mtb hypoxia inh 14.6, Bead autofluor 3843, Sa RN4220 lethal -0.2 and Mtb hypoxia inh growth 4.7.
Cc1cc(C)c(S(=O)(=O)N2CCN(C(=O)C3CCCO3)CC2)c(C)c1 (stereo not given) was read as PrP 5UTR inh -28.5, Sa ugtP lethal 15.5, Mtb hypoxia inh 6.5, Bead autofluor 5555, Sa RN4220 lethal 5.6 and Mtb hypoxia inh growth -11.1.
CCCOc1cccc(CN2CCCCC2c2cccnc2)c1 (stereo not given) was read as BJeLR viability -3.7, PrP 5UTR inh -21.9, Sa ugtP lethal 28.5, Mtb hypoxia inh 10.3, Bead autofluor 7903, Sa RN4220 lethal 2.6 and Mtb hypoxia inh growth 3.6.
Cc1nc(-c2cccs2)sc1C(=O)NN was read as BJeLR viability 10.4, PrP 5UTR inh -8.4, Sa ugtP lethal 1.4, Mtb hypoxia inh -4.4, Bead autofluor 4217, Sa RN4220 lethal 2.5 and Mtb hypoxia inh growth 0.7.
For COc1cc(C2C3=C(CC(C)(C)CC3=O)OC(N)=C2[N+](=O)[O-])ccc1O (stereo not given) the results were BJeLR viability 0.5, PrP 5UTR inh -19.3, Sa ugtP lethal 10.0, Mtb hypoxia inh 1.1, Bead autofluor 2323, Sa RN4220 lethal 8.1 and Mtb hypoxia inh growth 16.1.
Screening COc1ccc(-c2nc3c(n2O)CCc2c-3no[n+]2[O-])cc1 returned BJeLR viability 4.7, PrP 5UTR inh -21.3, Sa ugtP lethal 6.9, Mtb hypoxia inh 11.5, Bead autofluor 4009, Sa RN4220 lethal 5.0 and Mtb hypoxia inh growth 8.5.
`O=c1[nH]c(NCCO)nc2c1C1(CCCCC1)Cc1ccccc1-2` gave PrP 5UTR inh -8.6, Sa ugtP lethal 7.2, Bead autofluor 4790 and Sa RN4220 lethal -7.5.
Screening Cc1ccc(-c2nnc(Nc3cccc(O)c3)c3ccccc23)cc1S(=O)(=O)NCCO returned BJeLR viability 1.5, PrP 5UTR inh -14.4, Sa ugtP lethal 4.9, Mtb hypoxia inh 14.7, Bead autofluor 4269, Sa RN4220 lethal 6.3 and Mtb hypoxia inh growth 7.5.
`COc1ccc(-c2cc(C(=O)N3CCCC(C(F)(F)F)C3)c3ccccc3n2)cc1` (stereo not given) gave PrP 5UTR inh -31.4, Sa ugtP lethal -1.9, Mtb hypoxia inh 6.1, Bead autofluor 3904, Sa RN4220 lethal -2.2 and Mtb hypoxia inh growth 5.8.
For N=C1/C(=C/c2cccn2-c2ccc([N+](=O)[O-])cc2)C(=O)N=C2SC=CN12 the results were BJeLR viability -5.2, PrP 5UTR inh -24.8, Sa ugtP lethal -9.2, Mtb hypoxia inh 7.9, Bead autofluor 2067, Sa RN4220 lethal 1.2 and Mtb hypoxia inh growth -11.7.
Screening COc1ccccc1C(C)NC(=O)CN(C)CC(=O)Nc1c(C)cccc1C (stereo not given) returned Sa ugtP lethal 1.2, Mtb hypoxia inh 6.9, Bead autofluor 5495, Sa RN4220 lethal 5.1 and Mtb hypoxia inh growth 0.2.
`COc1ccc(NC(=O)C2CCCCN2CC(=O)OCc2ccccc2)cc1OC` (stereo not given) gave BJeLR viability -0.7, PrP 5UTR inh -24.6, Sa ugtP lethal 2.5, Bead autofluor 6137 and Sa RN4220 lethal 4.4.
COc1ccc(-c2noc(CCCC(=O)O)n2)cc1 was read as BJeLR viability 1.7, PrP 5UTR inh 56.3*, Sa ugtP lethal 0.4, Mtb hypoxia inh 10.0, Bead autofluor 5931, Sa RN4220 lethal 2.5 and Mtb hypoxia inh growth 3.4.
Screening CC(=O)Nc1sc2c(c1CN1CCN(C)CC1)CCCC2 returned BJeLR viability -0.1, PrP 5UTR inh -5.6, Sa ugtP lethal 2.9, Bead autofluor 5295 and Sa RN4220 lethal 1.7.
For C=C(C)C1CC=C(C)C(=NNC(=S)Nc2ccccc2)C1 (stereo not given) the results were Sa ugtP lethal 80.6, Mtb hypoxia inh 2.2, Sa RN4220 lethal -5.2 and Mtb hypoxia inh growth 2.2.
`COc1ccc2c(CC(=O)NCC3CCC(C(=O)O)CC3)cc(=O)oc2c1` (stereo not given) gave BJeLR viability 4.1, PrP 5UTR inh -10.7, Sa ugtP lethal 1.4, Mtb hypoxia inh 12.1, Bead autofluor 3574, Sa RN4220 lethal -3.7 and Mtb hypoxia inh growth 10.4.
For COC(=O)c1cc(Cl)c(NC(=O)/C=C/c2ccc(Cl)cc2)cc1OC the results were BJeLR viability -0.1, PrP 5UTR inh 0.1, Sa ugtP lethal -13.3, Mtb hypoxia inh -3.4, Bead autofluor 20164*, Sa RN4220 lethal -0.7 and Mtb hypoxia inh growth 15.8.
For c1ccc2c(c1)CCc1ccccc1C2=C1CCNCC1 the results were BJeLR viability -8.1, PrP 5UTR inh -13.0 and Bead autofluor inconclusive.
Screening Cc1ccc2cc(CN(Cc3cccs3)Cc3nnnn3CC3CCCO3)c(=O)[nH]c2c1C (stereo not given) returned BJeLR viability -3.3, PrP 5UTR inh -4.6, Sa ugtP lethal -9.4, Mtb hypoxia inh -7.3, Bead autofluor 7211, Sa RN4220 lethal 2.5 and Mtb hypoxia inh growth 6.5.
Cc1ccc(N2C(=O)N3C(c4ccc(F)cc4)C4C(=O)N(C5CCCCC5)C(=O)C4[C@]3(Cc3ccccc3)C2=O)cc1 (stereo not given in full) was read as Sa ugtP lethal 10.9, Mtb hypoxia inh -7.2, Sa RN4220 lethal 14.3 and Mtb hypoxia inh growth 4.0.
For CCN1CCN(CC(=O)Nc2nc3ccc(OC)cc3s2)CC1 the results were BJeLR viability 1.8, PrP 5UTR inh -7.1, Sa ugtP lethal 6.6, Mtb hypoxia inh 11.0, Bead autofluor 2440, Sa RN4220 lethal -1.8 and Mtb hypoxia inh growth 5.7.
Cc1ccc(S(=O)(=O)N2CCN(C(=O)CSc3ccc(Cl)cc3)CC2)cc1 was read as BJeLR viability -4.4, PrP 5UTR inh -2.6, Sa ugtP lethal 5.7, Mtb hypoxia inh 3.8, Bead autofluor 5903, Sa RN4220 lethal 1.3 and Mtb hypoxia inh growth -5.8.
O=C(CCc1nnc(-c2ccccc2)o1)NCC1CCN(C2CCCC2)CC1 was read as BJeLR viability 0.3, PrP 5UTR inh -19.3, Sa ugtP lethal -2.5, Mtb hypoxia inh 11.3, Bead autofluor 4770, Sa RN4220 lethal 4.7 and Mtb hypoxia inh growth -2.0.
Screening COc1cccc(C(=O)COc2ccccc2N2C(=O)C3C4C=CC(C4)C3C2=O)c1 (stereo not given) returned BJeLR viability 1.1, PrP 5UTR inh -8.5, Sa ugtP lethal 1.8, Mtb hypoxia inh 4.4, Bead autofluor 2057, Sa RN4220 lethal 5.1 and Mtb hypoxia inh growth 8.7.
Cc1ccc(Nc2c([N+](=O)[O-])ccc3nonc23)cc1C was read as BJeLR viability -14.9, PrP 5UTR inh -22.2, Sa ugtP lethal 0.4, Mtb hypoxia inh 3.2, Bead autofluor 3821, Sa RN4220 lethal 5.0 and Mtb hypoxia inh growth -0.6.
`COc1ccc(CCNC(=O)c2cc(Cl)nc3ccccc23)cc1` gave BJeLR viability -4.9, PrP 5UTR inh -25.0, Sa ugtP lethal 0.5, Mtb hypoxia inh 6.4, Bead autofluor 5633, Sa RN4220 lethal -1.6 and Mtb hypoxia inh growth -0.5.
`COc1ccc(Nc2nccc(OC)c2C#N)cc1` gave BJeLR viability 3.6, PrP 5UTR inh -22.5, Sa ugtP lethal 4.3, Mtb hypoxia inh 15.8, Bead autofluor 8070, Sa RN4220 lethal 6.7 and Mtb hypoxia inh growth 7.4.
Cc1ccc(CNC(=O)CSc2ncn[nH]2)cc1 was read as BJeLR viability -1.5, PrP 5UTR inh -27.3, Sa ugtP lethal 2.3, Mtb hypoxia inh -1.8, Bead autofluor 4238, Sa RN4220 lethal 5.6 and Mtb hypoxia inh growth -6.3.
Screening Cc1cc(N2C(=O)C3CCCN3C2c2cccc(Cl)c2)no1 (stereo not given) returned BJeLR viability -3.6, PrP 5UTR inh -31.6, Sa ugtP lethal -8.3, Mtb hypoxia inh -3.3, Bead autofluor 7191, Sa RN4220 lethal -5.4 and Mtb hypoxia inh growth -1.5.
`O=C(NCc1ccco1)c1cccc(S(=O)(=O)N2CCN(Cc3ccccc3)CC2)c1` gave BJeLR viability 0.9, PrP 5UTR inh -24.7, Sa ugtP lethal -0.3, Mtb hypoxia inh -1.8, Bead autofluor 5150, Sa RN4220 lethal -1.4 and Mtb hypoxia inh growth 4.9.

Arranged by number of heavy atoms (descending): part of the list above
`O=C(NCc1ccco1)c1cccc(S(=O)(=O)N2CCN(Cc3ccccc3)CC2)c1` gave BJeLR viability 0.9, PrP 5UTR inh -24.7, Sa ugtP lethal -0.3, Mtb hypoxia inh -1.8, Bead autofluor 5150, Sa RN4220 lethal -1.4 and Mtb hypoxia inh growth 4.9.
Screening Cc1cc(N2C(=O)C3CCCN3C2c2cccc(Cl)c2)no1 (stereo not given) returned BJeLR viability -3.6, PrP 5UTR inh -31.6, Sa ugtP lethal -8.3, Mtb hypoxia inh -3.3, Bead autofluor 7191, Sa RN4220 lethal -5.4 and Mtb hypoxia inh growth -1.5.
Cc1ccc(Nc2c([N+](=O)[O-])ccc3nonc23)cc1C was read as BJeLR viability -14.9, PrP 5UTR inh -22.2, Sa ugtP lethal 0.4, Mtb hypoxia inh 3.2, Bead autofluor 3821, Sa RN4220 lethal 5.0 and Mtb hypoxia inh growth -0.6.

(listing goes on)
For O=C(CCn1cnnn1)NC1CCCN(Cc2ccccc2F)C1 (stereo not given) the results were BJeLR viability -6.2, PrP 5UTR inh -18.3, Sa ugtP lethal 6.0, Mtb hypoxia inh -1.9, Bead autofluor 5248, Sa RN4220 lethal 2.8 and Mtb hypoxia inh growth -2.9.
For COC(=O)CC1C(C(=O)OC)ON2OC(C(=O)OC)C(C(=O)OC)C12 (stereo not given) the results were BJeLR viability 3.2, PrP 5UTR inh -18.6, Sa ugtP lethal 2.5, Mtb hypoxia inh 7.2, Bead autofluor 2167, Sa RN4220 lethal 1.7 and Mtb hypoxia inh growth -0.5.
Screening Cc1ccc(-c2csc3nc(SCC(=O)Nc4ccc(Cl)c(C(=O)O)c4)[nH]c(=O)c23)cc1 returned BJeLR viability -0.8, PrP 5UTR inh 3.2, Sa ugtP lethal -2.0, Mtb hypoxia inh -6.1, Bead autofluor 5573, Sa RN4220 lethal 1.7 and Mtb hypoxia inh growth -17.6.
Screening COCCn1c(SCC(=O)Nc2cc(C)nn2-c2ccccc2)nnc1-c1ccncc1 returned BJeLR viability -1.9, PrP 5UTR inh -3.2, Sa ugtP lethal 2.0, Mtb hypoxia inh 2.3, Bead autofluor 2627, Sa RN4220 lethal 3.7 and Mtb hypoxia inh growth 2.0.
Screening Cc1cccc(OCCCCc2c(C)n[nH]c2C)c1 returned BJeLR viability -6.7, PrP 5UTR inh -3.9, Sa ugtP lethal -11.4, Mtb hypoxia inh 5.2, Bead autofluor 11131, Sa RN4220 lethal 11.2 and Mtb hypoxia inh growth 2.3.
`O=C(Nc1ccc(S(=O)(=O)Nc2nccc(C3Cc4ccccc4C(=O)O3)n2)cc1)c1ccccc1` (stereo not given) gave BJeLR viability -11.0, PrP 5UTR inh -4.9, Sa ugtP lethal 4.2, Mtb hypoxia inh 10.2, Bead autofluor 23166*, Sa RN4220 lethal 2.5 and Mtb hypoxia inh growth 8.2.
For c1ccc(-c2nnc3n2N=C(c2ccc4c(c2)OCO4)CS3)nc1 the results were BJeLR viability 1.5, PrP 5UTR inh -9.8, Sa ugtP lethal 1.1, Mtb hypoxia inh -6.6, Bead autofluor 18035*, Sa RN4220 lethal 3.1 and Mtb hypoxia inh growth -5.3.
CN(C)S(=O)(=O)c1cccc(NC(=S)N/N=C/c2cccc(O)c2)c1 was read as BJeLR viability -9.7, PrP 5UTR inh -11.7 and Bead autofluor 2233.
`CCOC(=O)c1[nH]c2ccc(OC)cc2c1N=CN(C)C` gave BJeLR viability -0.5, PrP 5UTR inh -16.4, Sa ugtP lethal -0.5, Mtb hypoxia inh -5.8, Bead autofluor 3773, Sa RN4220 lethal 1.4 and Mtb hypoxia inh growth 1.9.
Screening S=c1[nH]nc(COc2ccccc2)n1/N=C/c1ccc(Cl)cc1Cl returned BJeLR viability -5.2, PrP 5UTR inh -9.2 and Bead autofluor 4138.

Rows were taken by chance. About 4.1% of those tested had a hit in this group.
